Vif TR-FRET – inhibitors of Vif binding to APOBEC3G peptide, primary screen, biochemical, TR-FRET, GST-Vif 1-94, biotin-A3G peptide, dose response retest (AID 1117319) | TR-FRET GST-Vif / biotin-A3G peptide binding; higher % means a stronger effect; test concentration not given here; strong numbers were not always called active | 260,000 tested, 0.57% active | inhibition, %; hits with a dose series show IC50 in µM;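 active = above the screen mean plus three standard deviations and confirmed in dose response; inconclusive = results disagree or hit not tested in dose response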;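 note: Vif residues 1-94 fused to GST binding biotinylated APOBEC3G peptide 110-148; 0% = full assay without inhibitor and 100% = GST in place of GST-Vif; retest series ran down from 100 µM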
MLL AF4-AF9 inh – inhibitors of human MLL-AF4/AF9 interaction. AlphaScreen, biotin-AF4 peptide binding to FLAG-AF9. inhibition, % at 10 µM. 350,000 tested, 0.47% active. AID 651704;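 active = every replicate reaching a set inhibition limit, whatever the replicate mean, cut at about 25% in these data; inconclusive = mean inhibition reaches that limit but some replicates miss it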;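 note: 0% = plate neutral control median and 100% = total signal loss; the record names both 10 and 1 µM as test concentration; the first replicate is given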
E coli growth – inhibitors of Escherichia coli growth. AID 1053175. OD600 absorbance (concentration not given with the values). 330,000 tested, 0.21% active. OD600, 23 h; stronger effect = lower value;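 active = OD600 absorbance below the run mean of sample wells minus 3.6 SD, in any replicate, cut at about 0.56 in these data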;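 note: stock transfer was 300 nL into about 60 µL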
RanGTP-Imp inh – inhibitors of RanGTP-importin-beta interaction, primary screen, biochemical, FRET, CFP-Ran, YFP-importin-beta, homogeneous; cell-free CFP-Ran/YFP-importin-beta FRET ratio; inhibition, % (concentration not given with the values); 300,000 tested, 1.1% active;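 active = most replicates above 15%; inconclusive = exactly half above 15%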;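 note: 0% = DMSO wells and 100% = Ran loaded with GDP instead of GTP; wells of about 40 µL received 100 nL stock; the first replicate is given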
UCH37 inh – human UCH37 deubiquitinating enzyme inhibition; purified proteasome/UCH37, Ub-AMC cleavage fluorescence; inhibition, % (test concentration not listed); 330,000 tested, 0.33% active;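 active = mean of two replicates above 20%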;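 note: 0% = compound-free wells with enzyme and 100% = wells lacking proteasome; stock transfer was 100 nL into about 20 µL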
Target sequence (Q9Y5K5 whole entry, looked up): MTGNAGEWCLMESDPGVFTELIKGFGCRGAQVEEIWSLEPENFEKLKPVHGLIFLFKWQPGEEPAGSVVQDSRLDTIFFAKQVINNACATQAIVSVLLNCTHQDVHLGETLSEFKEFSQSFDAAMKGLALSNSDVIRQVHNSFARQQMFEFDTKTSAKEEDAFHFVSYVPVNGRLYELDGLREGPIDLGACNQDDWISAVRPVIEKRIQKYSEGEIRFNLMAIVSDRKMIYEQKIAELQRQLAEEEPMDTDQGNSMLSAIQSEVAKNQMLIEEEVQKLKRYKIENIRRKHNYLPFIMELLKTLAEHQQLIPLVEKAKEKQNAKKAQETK
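assay system = human UCH37 enzyme supplied as purified proteasome complex | amount = proteasome at 0.15 nM in the dispensed enzyme solution | schedule = 30 min compound-proteasome preincubation then 25 min substrate reaction, room temperature | measured by = fluorescence, ex 355 nm, em 460 nm | benchmarks = no-proteasome wells (full inhibition) and compound-free wells (no inhibition)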
FGF22 binding – shifts melting point of recombinant human FGF22 | calls only at 9.99 µM | 340,000 tested, 1.5% active | recombinant FGF22 thermal shift, SYPRO orange fluorescence; percent of sucrose octasulfate shift, DMSO zero;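 active = melting point raised past a set limit in the mean and every replicate; inconclusive = no clear call; three in four hits are not shown here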
Target sequence (Q9HCT0 whole entry, looked up): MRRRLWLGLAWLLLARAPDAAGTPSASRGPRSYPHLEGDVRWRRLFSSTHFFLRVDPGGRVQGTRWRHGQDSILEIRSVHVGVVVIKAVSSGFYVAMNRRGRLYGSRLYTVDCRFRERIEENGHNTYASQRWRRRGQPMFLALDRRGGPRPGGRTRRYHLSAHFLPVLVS
HNF4A DNA FP – change in binding of human HNF4 alpha to DNA. P41235. HNF4a-FITC DNA binding, fluorescence polarization, 1 h. activity change, % at 10 µM. 360,000 tested, 0.3% active. AID 1224865; in the data active = activity change above about 30%, passing the limit was not always enough;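 note: controls were the assay level and a saturating level of protein; the project sought stronger binding though the title names inhibitors; some compounds called inactive have numbers as strong as hits; positive values seem to mean higher polarization but the record does not say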
Target sequence (P41235 whole entry, looked up): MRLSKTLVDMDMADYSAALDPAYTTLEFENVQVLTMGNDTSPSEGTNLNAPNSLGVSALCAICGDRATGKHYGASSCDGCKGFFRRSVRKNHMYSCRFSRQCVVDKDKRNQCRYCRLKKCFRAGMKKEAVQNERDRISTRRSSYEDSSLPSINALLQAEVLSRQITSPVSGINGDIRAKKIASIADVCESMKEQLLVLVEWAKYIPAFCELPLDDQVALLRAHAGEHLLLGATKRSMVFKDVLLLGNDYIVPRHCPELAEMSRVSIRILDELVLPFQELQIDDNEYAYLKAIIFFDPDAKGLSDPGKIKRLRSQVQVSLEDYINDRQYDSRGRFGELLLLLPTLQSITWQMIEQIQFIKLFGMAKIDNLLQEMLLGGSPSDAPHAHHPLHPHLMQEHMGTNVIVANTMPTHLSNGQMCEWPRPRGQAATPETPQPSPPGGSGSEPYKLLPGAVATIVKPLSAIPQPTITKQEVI
Starred values were filed as active, the others as inactive; i = inactive; u = inconclusive; x = no result given; & = joins results of further samples; ! = not confirmed by another sample. Some of the compounds tested; count on the stated rates, not on these rows.

SMILES	Vif TR-FRET	MLL AF4-AF9 inh	E coli growth	RanGTP-Imp inh	UCH37 inh	FGF22 binding	HNF4A DNA FP
CCOC(=O)[C@H]1[C@H]2COc3ccc(OC)cc3[C@@H]2N2C(=O)CN(Cc3ccc(OC)cc3)C(=O)[C@@]12C	x	0.9	x	x	3.8	i	-2.7
Nc1nnc(Cc2ccccc2)s1	1%	x	0.7	-0.7	-1.2	x	-0.8
COC(=O)C1C(=O)c2c([nH]c(C(=O)OC3CCCC3C)c2C)CC1C (stereo unspecified)	-5%	-0.8	0.77	-1.0	-0.1	i	2.1
COc1ccc(C2C=C(c3ccc(C)cc3)Nc3ncnn32)cc1 (stereo unspecified)	0%&2%	x	0.75	-21	-3.1	x	1.4
Cc1ccccc1-c1cnc(C(O)c2ccc(-c3ccccc3)cc2)[nH]1 (stereo unspecified)	x	-4.5	x	x	x	i	0.6
O=C(CCc1ccccc1)NNC(=O)c1ccco1	-8%	x	0.71	-2.8	3.4	x	2.1
O=C(COC(=O)Cc1n[nH]c(=O)c2ccccc12)NNC(=O)c1ccccc1	-9%	-0.6	0.65	4.2	0.8	i	1.1
COCCN1C(=O)c2ccccc2C1c1nnnn1Cc1ccccc1 (stereo unspecified)	x	-1.4	x	x	x	i	1.1
Cc1cc(C)c2c(c1)cc(C)c1nnc(SCC(=O)N3CCCc4ccccc43)n12	x	x	0.69	0.2	0.1	x	1.7
CN(C)S(=O)(=O)N1CCC(C(=O)O)(c2ccccc2)CC1	0%	x	0.67	-1.3	3.6	x	-4.4
CCOc1ccc(CNC(=O)C2CCN(c3nnc(C)c4c(C)n(-c5ccc(C)cc5)nc34)CC2)cc1	x	-2.9	0.64	0.4	-37	i	45*
O=C(CNC(=O)Cn1ccc2ccccc2c1=O)NCCCN1CCN(c2cccc(Cl)c2)CC1	4%	x	0.69	21*	2.1	x	3.8
COc1cccc(C2CC(c3ccc(NS(C)(=O)=O)cc3)=NN2C(=O)c2ccccc2)c1OC (stereo unspecified)	x	3.9	0.67	1.4	-134	x	9.4
Cc1nc(CSc2nsc(C)c2C#N)cs1	-1%	0.1	0.71	-2.6	1.7	i	0.5
CCCCc1nc(SCCOC)c2c(=O)n(C)c(=O)n(C)c2n1	29%	-3.9	0.71	0.8	3.1	x	-1.3
COc1cc(NC(=O)c2ccc(Cl)cc2)c(OC)cc1NC(=O)CN1CCCCC1	-5%	-0.4	0.7	1.0	1.7	i	4.5
CCOc1ccc(CCNC(=O)Cn2ccc3cc(S(=O)(=O)N4CCCC4)ccc32)cc1	x	-0.5	0.69	5.4	4.9	i	5.7
c1ccc(-c2ccccc2OCCN2CCCCC2)cc1	-6%	x	0.61	-1.2	1.2	x	1.4
CC(C)(C)NC(=O)CCC1COc2ccccc2O1 (stereo unspecified)	4%	x	0.67	4.0	3.6	x	-1.7
CN(C(=O)CSc1nc(N)cc(N)n1)C1CCS(=O)(=O)C1 (stereo unspecified)	-1%	0.1	0.71	0.3	2.0	i	-0.5
O=C(c1ccc(N2CCN(C(=O)c3ccc(F)cc3F)CC2)cc1)c1cccc(F)c1	x	1.0	0.73	-1.2	-7.1	i	-4.7
Cc1ccc(C)c(NS(=O)(=O)c2cc(C(=O)NCc3ccco3)ccc2C)c1	4%	x	0.73	3.8	0.9	x	-1.1
COC(=O)CCCN1C(=O)NC(c2ccc(-c3ccccc3)cc2)C(C(=O)OCc2ccccc2)=C1C (stereo unspecified)	1%	0.3	0.71	x	1.5	i	1.7
COc1cc(Cn2c3ccc(NC(=O)CC(C)(C)C)cc3c(=O)n2C)ccc1F	x	-0.1	x	x	x	i	-5.1
CS(=O)(=O)c1ccc2nc(NC(=O)c3ccc(NS(=O)(=O)c4ccc(F)c(F)c4)cc3)sc2c1	12%	1.8	0.69	0.5	-45	i	9.8
SMILES	Vif TR-FRET	MLL AF4-AF9 inh	E coli growth	RanGTP-Imp inh	UCH37 inh	FGF22 binding	HNF4A DNA FP
CC1CCCCN1S(=O)(=O)c1ccc(NC(=O)c2cccc(-n3cnnn3)c2)cc1 (stereo unspecified)	15%	x	0.73	4.7	-0.8	x	-0.1
COCc1cc(=O)n2[nH]cc(-c3ccccc3)c2n1	0%	5.2	0.63	-1.1	-285	i	-3.2
Cc1cc(Oc2ccccc2)nc(N)n1	-2%	x	0.7	6.0	4.7	x	0.5
CCN1CCCC1CNc1ncnc2c1[nH]c1ccc(F)cc12 (stereo unspecified)	29%	x	0.74	5.2	-3.9	x	-0.5
Cc1[nH]c(=O)[nH]c(=O)c1S(=O)(=O)N1CCOCC1	2%	x	0.73	-0.5	2.2	x	4.9
COc1ccc(OC(=O)C(C)N2C(=O)c3ccccc3C2=O)cc1 (stereo unspecified)	x	-3.1	0.65	6.3	3.5	i	-1.4
CCOC(=O)/C(C#N)=C1/C(=O)N(Cc2ccccc2)c2ccccc21	16%	1.3	0.64	x	3.5	i	0.6
CC1(C)CN(c2ccc(CC#N)cc2)C1=O	7%	-1.7	0.64	0.9	-0.1	i	3.8
CCCCCCNC(=O)CSc1nccn1Cc1ccccc1	1%	-51	0.7	-4.9	0.1	i	-0.6
N#Cc1c(SCC(=O)O)nc(-c2ccccc2)c2c1CCCC2	-8%	x	0.7	1.1	3.2	x	0.2
O=[N+]([O-])c1cccc(COc2ncnc3cc([N+](=O)[O-])ccc23)c1	14%	16	x	1.9	x	i	1.1
CC(C)(C)c1cc(CCC(=O)N2CCCC2)cc(C(C)(C)C)c1O	4%	0.9	0.71	0.5	0.8	i	2.0
NS(=O)(=O)c1ccc(NC(=S)Nc2ccc(S(=O)(=O)N3CCCC3)cc2)cc1	12%	1.9	0.71	-5.9	-1.0	i	-0.2
COc1ccc(-c2nnc(N(C)C(=O)c3ccno3)s2)cc1	x	x	0.74	2.7	-2.9	x	-0.5
CN(C)C(=O)c1cn(N(C)c2ncc(C(F)(F)F)cc2Cl)c(=O)c2ccccc12	5%	x	0.7	2.1	3.4	x	-0.9
C=CCNC(=O)C1CCCN(S(=O)(=O)c2ccc(-n3cnnn3)cc2)C1 (stereo unspecified)	-12%	1.1	0.67	u	0.0	i	-0.2
CCn1c(SCC(=O)N/N=C/c2ccncc2)nc2ccccc21	3%	4.7	x	7.2	x	i	0.8
COc1ccc(N2CCN(C(=O)CSc3nnc4c(C)cc5ccccc5n34)CC2)cc1	8%	x	0.68	2.5	4.3	x	-0.6
CCCNC(=O)C1(C)CCCN(C(=O)CN2C(=O)c3ccccc3C2=O)C1 (stereo unspecified)	x	-1.4	x	x	x	i	4.0
Cc1ccc(C(=O)N/C(=C/c2ccco2)C(=O)NCCc2c[nH]c3ccccc23)cc1C	5%	x	x	1.3	-0.7	x	1.0
COc1ccc(/C=C/C(=O)c2ccccc2O)cc1	x	x	x	1.3	1.9	x	-0.2
COc1cc(C(=O)OCC(=O)Nc2cc(C)on2)c([N+](=O)[O-])cc1OC	-6%	-1.1	0.67	-3.5	3.3	i	2.9
Cc1cccc(C(=O)N/C(=C/c2ccco2)C(=O)N2CCCCCC2)c1	1%	6.7	0.65	-0.1	0.9	i	6.3
O=C(NNC(=O)c1ccc(S(=O)(=O)N2CCCCC2)cc1)c1ccc(F)cc1	5%	-1.7	0.68	0.8	4.4	i	0.1
CCCCn1c(N)c(N(CCOC)C(=O)CCS(=O)(=O)c2ccc(C)cc2)c(=O)[nH]c1=O	x	-1.6	x	x	x	i	0.9

Reprinted from the part before: 5 compounds, then new ones.
SMILES	Vif TR-FRET	MLL AF4-AF9 inh	E coli growth	RanGTP-Imp inh	UCH37 inh	FGF22 binding	HNF4A DNA FP
COc1ccc(/C=C/C(=O)c2ccccc2O)cc1	x	x	x	1.3	1.9	x	-0.2
COc1cc(C(=O)OCC(=O)Nc2cc(C)on2)c([N+](=O)[O-])cc1OC	-6%	-1.1	0.67	-3.5	3.3	i	2.9
Cc1cccc(C(=O)N/C(=C/c2ccco2)C(=O)N2CCCCCC2)c1	1%	6.7	0.65	-0.1	0.9	i	6.3
O=C(NNC(=O)c1ccc(S(=O)(=O)N2CCCCC2)cc1)c1ccc(F)cc1	5%	-1.7	0.68	0.8	4.4	i	0.1
CCCCn1c(N)c(N(CCOC)C(=O)CCS(=O)(=O)c2ccc(C)cc2)c(=O)[nH]c1=O	x	-1.6	x	x	x	i	0.9
COc1ccc(N=C2SC(CC(=O)Nc3ccccc3)C(=O)N2Cc2ccco2)cc1 (stereo unspecified)	0%	x	0.7	-4.7	2.3	x	-0.5
O=C(NCC(=O)N1CCN(C(=O)c2ccco2)CC1)c1cccc(Cl)c1	-7%	1.4	0.68	x	0.6	i	3.8
CC1(C)Cc2ccccc2C(NNC(=O)c2ccccc2)=N1	12%	-6.2	0.7	0.0	6.7	i	4.9
COC(=O)C1CCN(C(=O)COc2cc3sc(C)nc3c3sccc23)CC1	4%	x	0.67	2.5	3.0	x	4.6
CS(=O)(=O)c1ccc2nc(NC(=O)CN3CCC(Cc4ccccc4)CC3)sc2c1	-8%	-2.2	0.72	-0.5	5.5	i	-2.3
CN1OC[C@@H]2CN(C(=O)Cc3ccccc3)[C@H](c3ccccc3Br)C[C@@H]21	-2%	6.2	x	x	x	i	-1.1
O=C1C=C(OCCF)CC(c2cccc([N+](=O)[O-])c2)O1 (stereo unspecified)	x	-1.1	x	x	x	i	1.1
O=C(Nc1ccc(F)cc1F)N1CCCCC1c1cccnc1 (stereo unspecified)	-3%	x	0.66	3.2	4.0	x	-1.8
Cc1cc(C(F)(F)F)nc2c(Cl)c(C(C)(C)C)nn12	-10%	-5.4	0.66	4.6	1.6	i	-0.5
CC(C)Oc1ccc(N2CC(C(=O)Nc3ccc4c(c3)OCO4)CC2=O)cc1 (stereo unspecified)	3%	-1.9	0.7	-3.9	-0.3	i	-1.8
CC(=O)Nc1ccc(NC(=O)CCOc2ccccc2C)cc1	x	1.5	0.67	-2.0	2.4	i	-1.5
O=[N+]([O-])c1ccc(-c2ccc(/C=N/c3c(-c4ccco4)nc4ccccn34)o2)cc1	0.26µM*!	x	x	2.6	x	x	-6.8
COc1ccc(CC(=O)OCCc2cc3cc(OC)c(OC)cc3c(=O)o2)cc1	x	x	0.71	x	0.0	i	-0.2
N=c1c(C(=O)NC2CCCCC2)cc2c(=O)n3ccccc3nc2n1Cc1ccc(F)cc1	x	-0.2	0.7	159*	i	i	8.4
Fc1ccc(Br)cc1/C=N/N1CCN(c2ccccc2)CC1	0%	15	x	5.0	x	i	-2.1
O=C(O)C1CCCCC1C(=O)Nc1ccc(Cl)cc1 (stereo unspecified)	0%	-1.2	0.67	-15	1.3	i	4.1
CC(C(=O)NC1CCCC1)N1C(=O)c2cccc3cccc1c23 (stereo unspecified)	x	-0.8	0.65	u	-19	i	1.1
Cc1ccnc(NC(=O)C2COc3ccccc3O2)c1 (stereo unspecified)	x	-2.1	0.71	u	1.4	i	-0.5
NC(=O)SCC(=O)Nc1ccc(Cl)c(Cl)c1	1%	x	0.56	x	11	x	1.5
N=c1sccn1CC(=O)N1CCc2ccccc21	1%	x	0.76	1.0	1.5	x	4.5
CC(=O)NS(=O)(=O)c1ccc(NC(=O)c2ccc3c(c2)NC(=O)CS3)cc1	2%	1.5	0.71	x	1.4	i	-3.8
CC(C)C[C@H](NC(=O)c1[nH]cnc1C(=O)Nc1ccccc1)C(=O)OC(C)(C)C	x	5.9	x	2.6	28*	i	-1.9
CCCOc1ccc(N2C(=O)CC(NCC#N)C2=O)cc1 (stereo unspecified)	x	-3.9	0.62	-1.7	2.8	i	0.3
